High-throughput results deposited in PubChem by Southern Research Institute.
Mtb growth – Mycobacterium tuberculosis H37Rv growth inhibition, cell based, confirmatory dose response (AID 1949); one-dose inhibition, % at 10 µg/mL; IC50 in µg/mL for titrated hits; 100,000 compounds, 1.6% hits; most inactive calls were filed without a number and no value below 0 was filed;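 active = confirmed in a dose series; inconclusive = about 50% or more but not retested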;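 also: bacteria grown 7 days with compound before Alamar blue readout; 0% = untreated bacteria and 100% = reference antibiotic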
* = called active by the depositor; i = inactive; ? = inconclusive.

SMILES | Mtb growth
CCn1c(COc2ccccc2Cl)n[nH]c1=S | i
O=C(c1cn(-c2ccccc2)nc1-c1ccncc1)N1CCCCC1 | i
Cc1c(OC(=O)c2ccco2)ccc2c1CCCC2 | i
O=C(NC(=S)N1CCCc2ccccc21)c1ccco1 | i
CCOC(=O)c1c(NC(=O)C2CCCCC2)sc(C(=O)Nc2ccc(C)cc2C)c1C | 13%
COc1cccc(NC(=O)C2CCCO2)c1 (stereo not given) | i
CCOc1ccccc1N(CC(=O)Nc1ccc(CC)cc1)S(=O)(=O)c1ccc(C)cc1 | i
CCC(Sc1nnc(-c2cccc(NC(C)=O)c2)n1C)C(=O)Nc1ccc(C(C)=O)cc1 (stereo not given) | i
Cc1ccccc1NC(=O)c1ccc(-c2ccccc2)cc1 | 3%
CCOc1ccc(Br)cc1CNCC(C)C | i
CN(C)c1ccc(NC(=O)c2csc3c2CCCC3)cc1 | i
CCOC(=O)COc1ccc2c(=O)c(Oc3cccc(OC)c3)coc2c1 | 27µg/mL*
COc1ccc(CC(=O)N2N=C(c3cccnc3)CC2(O)C(F)(F)F)cc1OC (stereo not given) | 5%
COc1ccc(C(=O)Nc2nc(C)c(C(=O)N(C)C)s2)cc1OC | i
CCOc1ccccc1C(=O)Nc1cccc(NC(=O)c2ccccc2OCC)n1 | i
COc1ccc(N2CCN(CC(O)COc3ccc4c(c3)CCC4)CC2)cc1 (stereo not given) | 15%
CCCOc1ccc(C(=O)c2nc3c(n2O)CCCCC3)cc1 | i
CCOC(=O)C1CCN(C(=O)CNS(=O)(=O)c2ccc(F)cc2)CC1 | i
COC(=O)c1ccc(NC2OC(=O)c3c2ccc(OC)c3OC)cc1 (stereo not given) | i
O=C(Nc1ccccc1C(F)(F)F)c1cccc(Cl)c1 | ?
O=C(Nc1ccccc1C(F)(F)F)c1cc2nc(-c3ccco3)cc(C(F)(F)F)n2n1 | 1%
O=C(NCCc1ccccc1)c1ccc(NS(=O)(=O)c2ccccc2)cc1 | 4%
Cc1cc(NC(=O)C2CCCCC2C(=O)O)ccc1NC(=O)Cc1ccccc1 (stereo not given) | i
CC(C)(C)NC(=S)Nc1ccc(Cl)c(Cl)c1 | i
CC(=O)c1cccc(NC(=O)CN(C)S(=O)(=O)c2ccc(Br)cc2)c1 | i
COc1ccc(C(C)n2c(C)c(C(C)=O)c(C(C)=O)c2C)cc1 (stereo not given) | i
O=C(Nc1ccc(F)cc1F)c1ccc(CN2CCOCC2)cc1 | i
CCCc1sc(N2CCN(S(C)(=O)=O)CC2)nc1-c1ccccc1 | i
C=CCNc1cc(N2CCN(C(=O)c3ccc(Cl)cc3)CC2)ccc1[N+](=O)[O-] | i
COc1cccc(C(=O)NC(=S)Nc2cccc(-c3nc4cc(C(C)C)ccc4o3)c2)c1 | 28%
Cc1cc(=O)[nH]c(SCC(=O)Nc2ccc([N+](=O)[O-])cc2)n1 | i
O=C(O)CCCC(=O)Nc1ccc(F)c(F)c1 | 1%
CCN(CC)S(=O)(=O)c1ccc(OC)nc1 | i
Fc1ccc(NC(=S)N2CCN(c3ccccc3)CC2)cc1 | 1%
COc1cccc(Oc2coc3cc(OC(=O)C(C)C)ccc3c2=O)c1 | i
CCNC(=O)CC1C(=O)N(c2ccccc2)C(=O)N1CCc1ccc(OC)c(OC)c1 (stereo not given) | i
O=C1CC(c2nc3ccccc3n2Cc2ccc(F)cc2)CN1c1cccc2ccccc12 (stereo not given) | 16%
COc1ccc(NC(=O)C2C3CCCCC32)cc1 (stereo not given) | 1%
CC(CC(=O)Nc1nnc(Cc2ccc(Cl)cc2)s1)c1ccccc1 (stereo not given) | i
CCCCCCOC(=O)Nc1ccc(S(=O)(=O)Nc2ccc(F)cc2)cc1 | 1%

Sorted by molecular weight (low to high): four of the compounds above
SMILES | Mtb growth
O=C(O)CCCC(=O)Nc1ccc(F)c(F)c1 | 1%
CCN(CC)S(=O)(=O)c1ccc(OC)nc1 | i
COc1ccc(NC(=O)C2C3CCCCC32)cc1 (stereo not given) | 1%
O=C1CC(c2nc3ccccc3n2Cc2ccc(F)cc2)CN1c1cccc2ccccc12 (stereo not given) | 16%

Next compounds follow.
SMILES | Mtb growth
COc1ccc(CNC(=O)CN(C)S(=O)(=O)c2ccc(Br)cc2)cc1 | i
O=C(Nc1ccc(-c2nc3ccccc3s2)c(Cl)c1)c1ccccc1I | 40%
C=CCSc1nc2c(c(=O)[nH]1)C(c1ccccc1OC)C1=C(CCCC1=O)N2 (stereo not given) | i
Cc1ccc(C(=O)Nc2ccc(S(=O)(=O)Nc3nccs3)cc2)o1 | i
O=C(CCc1ccccc1)NC(=S)Nc1ccc(N2CCN(Cc3ccccc3)CC2)cc1 | i
COC(=O)c1ccccc1NC(=O)CSc1n[nH]c(CC(C)C)n1 | i
COc1ccc(NC(=O)N(Cc2ccc(F)cc2)C2CC(=O)N(c3ccc(F)cc3)C2=O)cc1 (stereo not given) | 3%
COc1ccc(/C=C(/C#N)C(N)=S)c(OC)c1 | i
Cc1ccc(-c2nn(-c3ccccc3)cc2CNCc2ccccc2)o1 | 9.3µg/mL*
Cc1c(NC(=O)c2ccccc2N(C)S(=O)(=O)c2ccccc2)c(=O)n(-c2ccccc2)n1C | i
O=C1COc2ccc([N+](=O)[O-])cc2CN1 | i
COc1ccc(N2CC(C(=O)Nc3cccc(C)c3)CC2=O)cc1 (stereo not given) | i
FC(F)(F)c1ccc(Oc2ccc(Cl)c3cccnc23)nc1 | i
CCOC(=O)c1cc(CC)sc1NC(=O)Cn1c(=O)oc2ccccc21 | i
COc1ccc(C(=O)NC(=S)NNC(=O)c2ccc(OC)c(OC)c2)cc1Br | <0.1µg/mL*
COc1ccc(OCCOc2cccc3cccnc23)cc1 | 4%
CC12CCC(C(=O)N(c3ccccc3)c3ccccc3)(CC1=O)C2(C)C (stereo not given) | i
CN1CCN(C(=O)c2ccc(CN(c3ccccc3)S(C)(=O)=O)cc2)CC1 | i
Cc1ccc2c(S(=O)(=O)O)ccc(O)c2n1 | i
CC1CN(C(=O)c2cccc(NC(=O)c3ccccc3)c2)CC(C)O1 (stereo not given) | i

A different layout for some results above:
molecule: COc1cccc(C(=O)NC(=S)Nc2cccc(-c3nc4cc(C(C)C)ccc4o3)c2)c1
  Mtb growth: 28%

molecule: Cc1cc(=O)[nH]c(SCC(=O)Nc2ccc([N+](=O)[O-])cc2)n1
  Mtb growth: i

molecule: O=C(O)CCCC(=O)Nc1ccc(F)c(F)c1
  Mtb growth: 1%

molecule: CCN(CC)S(=O)(=O)c1ccc(OC)nc1
  Mtb growth: i

More results:
SMILES | Mtb growth
Cc1[nH]n(-c2ccccc2)c(=O)c1C1(C(F)(F)F)C(=O)N(CC2CCCO2)C2=C1C(=O)CC(C)(C)C2 (stereo not given) | i
CCC(=O)Nc1ccc(C(=O)Nc2ccccc2-c2ccccc2)cc1 | 9%
COc1ccc(NC(C)=O)c(NC(=O)c2cc(-c3ccccc3)nc3ccccc23)c1 | i
S=C(Nc1ccccc1)Nc1ccc2nc(-c3ccccn3)c(-c3ccccn3)nc2c1 | i
Cc1ccc(-c2nc3ccccc3o2)cc1NC(=O)CC12CC3CC(CC(C3)C1)C2 | 0%
O=[N+]([O-])c1ccc(CSc2nnc(SCc3ccc(Cl)cc3)s2)cc1 | 5%
CC(=O)Nc1ccc(NS(=O)(=O)c2ccc3c(c2)OCCO3)cc1 | i
Cc1cccc(OCCCCN2CCNCC2)c1 | i
COc1ccc(C)cc1S(=O)(=O)N(C)CC(=O)NCc1ccccn1 | i
CCOC(=O)CSc1nnc2c3sc4nc(N5CCOCC5)c5c(c4c3ncn12)CC(C)(C)OC5 | 1.3µg/mL*
CCn1c(SCC(=O)Nc2cc(Cl)cc(Cl)c2)nnc1-c1cccs1 | i
COC(=O)c1c(NC(=O)COc2c(C)cccc2C)sc2c1CCCC2 | 48%
COc1ccc(NC(=O)CSc2ncn(-c3ccccc3)n2)cc1Cl | i
S=C(NCc1ccccc1)Nc1nc2ccccc2s1 | 46%
Cc1ccc(S(=O)(=O)N2CCC(C(=O)NC3CCCCC3)CC2)cc1 | i
COc1ccccc1C1CC(=O)C2=C(C1)NC(C)=C(C(=O)OC1CCCC1)C2c1ccsc1 (stereo not given) | 9%
c1ccc(CNn2nnnc2-c2ccccc2)cc1 | i
CCn1c(COc2ccc(C(C)C)cc2)nnc1SCC(=O)Nc1ccc([N+](=O)[O-])cc1C | 16%
Cc1ccc(OC(C)C(=O)Nc2ccccc2)cc1C (stereo not given) | i
O=C(CSCc1ccccc1)Nc1nccs1 | i
COc1cc2c(cc1OC)C(c1cc(Br)ccc1F)CC(=O)N2 (stereo not given) | i
CCOc1ccc2ccccc2c1C(=O)NN1CCN(C)CC1 | i
CC(C)(C)c1ccc(/C=N/N2CCN(Cc3cccc4ccccc34)CC2)cc1 | 26%
O=C(O)CCC(=O)Nc1cccc(C(=O)c2ccccc2)c1 | i
COC(=O)Nc1c(-c2ccccc2)nc2ccccn12 | i
O=C(c1ccccc1)c1ccc(OCC(O)CN2CCCCC2)cc1 (stereo not given) | i
CC(=O)c1cccc(NC(=S)N2CC(C)OC(C)C2)c1 (stereo not given) | i
CCOC(=O)c1c(C)n(Cc2ccco2)c2c1cc(O)c1ccccc12 | 1%
Cc1c(NC(=S)NC(=O)c2ccccc2Br)cccc1C(=O)O | i
CC(Oc1cccc(Cl)c1)C(=O)NCCCn1ccnc1 (stereo not given) | 0%
CCNC(=O)C1CCN(S(=O)(=O)c2ccc(OC)c(Cl)c2)CC1 | i
C=CCOc1ccccc1C1NC(=O)NC(C)=C1C(=O)OC (stereo not given) | 3%
O=C(Nc1cc(Cl)c(O)c(Cl)c1)c1cccs1 | 2%
CSc1ccccc1C(=O)Nc1ccccc1C(=O)NCCc1ccccc1 | 5%
CCOCCCNCc1ccc(OCc2ccccc2C)c(OC)c1 | i
COC(=O)c1ccc(NC(=O)CN(C)S(=O)(=O)c2ccc(OC)c(C)c2)cc1 | i
NS(=O)(=O)c1ccc(NC(=O)C2Cc3ccccc3CN2S(=O)(=O)c2ccc(F)cc2)cc1 (stereo not given) | i
O=C(Nc1ccccc1N1CCOCC1)c1cccc(F)c1 | i
Cc1ccc(OC(=O)COc2ccc(Br)cc2Cl)c(C)c1 | 2%
COc1ccc(CCC(=O)Nc2cc(Cl)ccc2OC)cc1 | i

Three compounds picked at random from those above, as already listed:
SMILES | Mtb growth
O=C1CC(c2nc3ccccc3n2Cc2ccc(F)cc2)CN1c1cccc2ccccc12 (stereo not given) | 16%
CCOC(=O)CSc1nnc2c3sc4nc(N5CCOCC5)c5c(c4c3ncn12)CC(C)(C)OC5 | 1.3µg/mL*
O=C(CCc1ccccc1)NC(=S)Nc1ccc(N2CCN(Cc3ccccc3)CC2)cc1 | i

Continuation:
SMILES | Mtb growth
Cc1cc(CO)c(C)n1-c1ccc(OCc2ccccc2)cc1 | i
CCn1c(NCCCO)nc2ccccc21 | 2%
Cc1cc(C)n(C(=O)c2cc(Br)ccc2Cl)n1 | 2%
Cc1cc(C)nc(Nc2ccc(S(N)(=O)=O)cc2)n1 | i
Cc1ccc(C(=O)Nc2ccc(N3CCOCC3)c(Cl)c2)cc1 | 13%
CCc1cccc(C)c1NC1=NS(=O)(=O)c2ccccc21 | i
O=C(NC1CCCCC1)N1c2ccccc2C=Cc2ccccc21 | 8%
COc1ccc(C)cc1-n1c(-c2ccccc2F)n[nH]c1=S | i
Cc1cc(NC(=O)CSc2nncn2C)ccc1Cl | i
CC(C)(C)c1ccc(C(=O)Nc2ccc(S(=O)(=O)Nc3cnc4ccccc4n3)cc2)cc1 | 17%
Cc1ccc(C)c(N2CC(=O)N(c3cc(C)ccc3C)CC2=O)c1 | i
CN(C)CCCOc1ccccc1-c1ccccc1 | i
NS(=O)(=O)c1ccc(NC(=S)Nc2ccc(Oc3ccccc3)cc2)cc1 | i
CCCCC(=O)Nc1cccc(NC(=O)c2cc(C)cc(C)c2)c1 | 10%
CC1=C(C(=O)Nc2ccccc2)C(c2ccc(I)cc2)NC(=O)N1 (stereo not given) | i
O=C(c1cccc(Br)c1)N1CCN(C(=O)N2CCCCC2)CC1 | i
CCOc1cc(/C=C/c2[nH]c(=O)[nH]c(=O)c2[N+](=O)[O-])ccc1OCc1ccc(F)cc1 | i
COc1ccc(CNCCc2ccccc2)cc1Cl | 2%
COC(=O)c1[nH]c2c(c1C)C(=O)CC(c1cccs1)C2 (stereo not given) | i
Cc1cc(C)c(NS(=O)(=O)c2ccc(NC(=O)c3ccco3)cc2)c(C)c1 | 1%
CC(=O)NC(=S)NNC(=O)c1ccc(C(C)(C)C)cc1 | 0.29µg/mL*
C=CCn1c(SCC(=O)NCCOc2ccccc2)nnc1-c1cccc(Br)c1 | i
Cc1ccc(C(=O)CN(C(=O)c2ccc(Cl)cc2)N2C(=O)C3C4C=CC(C4)C3C2=O)cc1 (stereo not given) | i
CC(C)(C)c1cc(C(=O)N2CCN(CCO)CC2)cc(C(C)(C)C)c1 | 16%
Cc1cc([N+](=O)[O-])ccc1N1CCN(C(=O)c2ccc(F)cc2)CC1 | i
COc1nc(C)ccc1-c1noc(-c2ccco2)n1 | i
O=C(CNS(=O)(=O)c1ccc(Br)cc1)NCc1cccnc1 | i
Cc1ccc(NC(=S)N2CCN(c3cc(Cl)ccc3C)CC2)c(C)c1 | i
CC(Oc1ccc(Br)cc1)C(=O)Nc1ccc(C#N)cc1 (stereo not given) | i
CC(C)c1cc(Br)ccc1OCCN1C(=O)NC(C)(C)C1=O | i
CCCCSc1nnc2c3c4c(sc3nc(C)n12)CCCC4 | i
O=C(COc1ccc(Br)cc1)NCCCc1ccccc1 | 4%

Reformatted: 6 of the compounds above
molecule	Mtb growth
O=C(COc1ccc(Br)cc1)NCCCc1ccccc1	4%
Cc1ccc(NC(=S)N2CCN(c3cc(Cl)ccc3C)CC2)c(C)c1	i
Cc1cc([N+](=O)[O-])ccc1N1CCN(C(=O)c2ccc(F)cc2)CC1	i
CC(C)c1cc(Br)ccc1OCCN1C(=O)NC(C)(C)C1=O	i
CCCCSc1nnc2c3c4c(sc3nc(C)n12)CCCC4	i
C=CCn1c(SCC(=O)NCCOc2ccccc2)nnc1-c1cccc(Br)c1	i

The list is partial; the hit share may differ from the screen's.
